Source: PubChem (several laboratories)
RanGTP-Impb inh: disruptors of Ran-importin-beta complex formation – biochemical, FRET, CFP-Ran, YFP-importin-beta, homogeneous, primary screen. cell-free CFP-Ran/YFP-importin-beta FRET ratio. inhibition, % (test concentration not listed). hit rate 1.1% among 300,000;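 active means most replicates above 15%; inconclusive means exactly half above 15%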;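 further: 0% = DMSO wells and 100% = Ran loaded with GDP instead of GTP; wells of about 40 µL received 100 nL stock; the first replicate is given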
UCH37 DUB inh: human UCH37 deubiquitinating enzyme inhibition. purified proteasome/UCH37, Ub-AMC cleavage fluorescence. Q9Y5K5. AID 588478. hit rate 0.33% among 330,000. inhibition, % (test concentration not listed);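 active means mean of two replicates above 20%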;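 further: 0% = compound-free wells with enzyme and 100% = wells lacking proteasome; stock transfer was 100 nL into about 20 µL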
Target sequence (Q9Y5K5 whole entry, looked up): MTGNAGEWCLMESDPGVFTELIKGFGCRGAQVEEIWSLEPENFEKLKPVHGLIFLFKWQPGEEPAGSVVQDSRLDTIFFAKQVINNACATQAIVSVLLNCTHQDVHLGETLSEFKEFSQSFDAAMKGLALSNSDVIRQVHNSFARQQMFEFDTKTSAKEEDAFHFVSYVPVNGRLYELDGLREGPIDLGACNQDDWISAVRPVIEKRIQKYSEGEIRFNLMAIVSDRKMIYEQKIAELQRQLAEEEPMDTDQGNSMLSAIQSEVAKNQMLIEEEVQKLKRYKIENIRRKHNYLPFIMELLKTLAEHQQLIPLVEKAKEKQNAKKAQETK
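Test system – human UCH37 enzyme supplied as purified proteasome complex · Incubation – 30 min preincubation with enzyme, 25 min cleavage at room temperature · Detection – AMC fluorescence from Ub-AMC cleavage, excitation 355 nm, emission 460 nm · Benchmarks – no-proteasome wells (full inhibition) and compound-free wells (no inhibition)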
FGF22 binding: FGF22 (human) thermal shift binding; Q9HCT0; recombinant FGF22 thermal shift, SYPRO orange fluorescence; percent of sucrose octasulfate shift, DMSO zero; calls only at 9.99 µM; hit rate 1.5% among 340,000; AID 651658;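 active means melting point raised past a set limit in the mean and every replicate; inconclusive means no clear call; three in four hits are not shown here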
Target sequence (Q9HCT0 whole entry, looked up): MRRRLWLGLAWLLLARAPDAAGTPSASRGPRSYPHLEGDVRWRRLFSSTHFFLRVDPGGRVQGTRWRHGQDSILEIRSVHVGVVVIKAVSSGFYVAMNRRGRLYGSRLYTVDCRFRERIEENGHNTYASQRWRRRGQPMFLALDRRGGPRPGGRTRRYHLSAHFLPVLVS
MLL AF4-AF9 inh: inhibitors of human MLL-AF4/AF9 interaction; P42568; AlphaScreen, biotin-AF4 peptide binding to FLAG-AF9; inhibition, % at 10 µM; hit rate 0.47% among 350,000; AID 651704;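 active means every replicate reaching a set inhibition limit, whatever the replicate mean, cut at about 25% in these data; inconclusive means mean inhibition reaches that limit but some replicates miss it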;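 further: 0% = plate neutral control median and 100% = total signal loss; the record names both 10 and 1 µM as test concentration; the first replicate is given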
Target sequence (P42568 whole entry, looked up): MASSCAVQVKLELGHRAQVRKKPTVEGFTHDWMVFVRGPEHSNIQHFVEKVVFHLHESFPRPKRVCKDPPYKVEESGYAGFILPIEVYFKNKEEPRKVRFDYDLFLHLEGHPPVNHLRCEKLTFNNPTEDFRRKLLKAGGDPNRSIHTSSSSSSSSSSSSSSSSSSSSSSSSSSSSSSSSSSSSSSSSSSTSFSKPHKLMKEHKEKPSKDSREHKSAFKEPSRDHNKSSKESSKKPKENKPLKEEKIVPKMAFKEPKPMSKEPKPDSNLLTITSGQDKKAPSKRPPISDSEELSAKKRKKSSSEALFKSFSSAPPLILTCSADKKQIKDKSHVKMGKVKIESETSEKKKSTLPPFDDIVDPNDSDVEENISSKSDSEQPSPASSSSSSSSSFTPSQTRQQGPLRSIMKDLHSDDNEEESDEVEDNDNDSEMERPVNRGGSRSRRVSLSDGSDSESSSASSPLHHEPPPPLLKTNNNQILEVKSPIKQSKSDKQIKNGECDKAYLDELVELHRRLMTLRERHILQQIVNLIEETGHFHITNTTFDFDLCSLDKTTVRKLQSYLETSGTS
Vif A3G: HIV-1 Vif–A3G interaction blockers – biochemical, TR-FRET, GST-Vif 1-94, biotin-A3G peptide, dose response retest, primary screen (AID 1117319). TR-FRET GST-Vif / biotin-A3G peptide binding; higher % means a stronger effect; test concentration not given here; strong numbers were not always called active. inhibition, %, or IC50 in µM where a hit was titrated. hit rate 0.57% among 260,000;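 active means above the screen mean plus three standard deviations and confirmed in dose response; inconclusive means results disagree or hit not tested in dose response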;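 further: Vif residues 1-94 fused to GST binding biotinylated APOBEC3G peptide 110-148; 0% = full assay without inhibitor and 100% = GST in place of GST-Vif; retest series ran down from 100 µM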
E coli growth: E. coli growth inhibition; Escherichia coli growth, OD600, 23 h; hits give low values; hit rate 0.21% among 330,000; OD600 absorbance (no concentration beside the values);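 active means OD600 absorbance below the run mean of sample wells minus 3.6 SD, in any replicate, cut at about 0.56 in these data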;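 further: stock transfer was 300 nL into about 60 µL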
HNF4A DNA FP: change in binding of human HNF4 alpha to DNA; HNF4a-FITC DNA binding, fluorescence polarization, 1 h; activity change, % at 10 µM; hit rate 0.3% among 360,000; AID 1224865; in the data active means activity change above about 30%, passing the limit was not always enough;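 further: controls were the assay level and a saturating level of protein; the project sought stronger binding though the title names inhibitors; some compounds called inactive have numbers as strong as hits; positive values seem to mean higher polarization but the record does not say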
* = called active by the depositor; i = inactive; u = inconclusive; x = no result given; & = joins results of further samples. These rows are one share of the data; count on the stated rates, not on these rows.

SMILES	RanGTP-Impb inh	UCH37 DUB inh	FGF22 binding	MLL AF4-AF9 inh	Vif A3G	E coli growth	HNF4A DNA FP
CSc1ccccc1C(=O)Nc1ccc(C)c(C)c1	-2.3	1.6	x	x	-7.2%	0.663	-1.5
NS(=O)(=O)c1ccc(NC(=S)Nc2ccc(Br)c(Cl)c2)cc1	u	5.2	x	-0.9	x	x	-2.9
CC1(C(=O)OCC(=O)NCCNC(=O)COC(=O)C2(C)CC2(Cl)Cl)CC1(Cl)Cl (stereo unspecified)	0.2	-2.0	i	-0.4	x	0.706	5.9
CC1=CC(C)C(/C=N/N=C(N)N)C(C)C1 (stereo unspecified)	-0.6	x	i	-1.3	u	x	-0.5
Cc1ccc(S(=O)(=O)N(C)CCCC(=O)NC(C)(C)C)cc1	1.5	0.6	i	-1.4	-7.0%	0.673	-0.8
COc1cc(/C=N/NC(=S)Nc2cccc(S(=O)(=O)N(C)C)c2)cc(OC)c1O	0.6	x	i	15.8	x	x	0.2
CCOC(=O)c1ccc(NC(=O)CSc2nnc(NC(=O)c3ccc(S(=O)(=O)N4CCOCC4)cc3)s2)cc1	4.8	-31.3	x	x	u	0.733	0.9
O=C(NC(=S)NNC(=O)c1cccs1)c1ccco1	-3.4	1.6	x	x	3.5%	0.669	3.0
CN(C)c1nc(N)c(C#N)c(C#N)c1C#N	x	x	i	0.3	-3.5%	x	-2.3
CCOc1ccc(/C=C/C(=O)Nc2ccc(N3CCOCC3)cc2)cc1	-1.2	x	x	x	4.0%	0.713	4.5
COc1ccc(/C=C/C(=O)Oc2cccc(/C=N/NC(=O)Cc3ccc(Br)cc3)c2)cc1	-2.0	x	i	7.6	11.0%	x	6.2
O=C(NCc1ccc2c(c1)OCO2)C1CCCN1C(=O)Nc1ccc(Cl)cc1 (stereo unspecified)	5.6	0.4	i	-0.1	-1.4%	0.683	3.6
CCOc1ccc(S(=O)(=O)N2CCC(C(=O)N3CCN(C)CC3)CC2)cc1Cl	0.9	3.4	i	2.1	2.6%	0.66	-2.9
COc1ccc(-c2nnc(SCC(=O)N/N=C/c3ccccc3C(=O)O)n2-c2ccccc2)cc1	1.2	x	i	-3.1	10.2%	x	0.6
CN(C(=O)CCNC(=O)Cn1ccc2ccccc2c1=O)c1ccc(Br)cc1	-1.4	-0.4	i	10.1	x	0.659	-2.7
COC(=O)c1sccc1NC(=O)Cn1nnc(-c2ccc(C)cc2)n1	-1.5	0.5	x	x	-11.1%	0.707	-1.4
c1ccc(C2=Nn3c(nnc3-c3n[nH]c4c3CCC4)SC2)cc1	2.0	1.9	x	x	26.1%	0.66	-0.2
CCn1c(SCC(=O)Nc2nc(C)cs2)nnc1-c1ccco1	-2.7	0.8	x	x	4.9%	0.651	0.7
CSc1nnc(C)c(/C=C/Nc2ccc(F)cc2F)n1	-2.8	5.9	i	3.2	30.9%	0.676	0.4
CN1CCN(c2nc(-c3ccccc3)ncc2S(=O)(=O)c2ccccc2)CC1	1.6	2.5	i	10.5	x	0.702	1.4
CCOC(=O)C1(C)CCN1C(=O)c1ccc(OC)cc1OC (stereo unspecified)	x	x	i	0.9	x	x	0.6
CCOC(=O)C1=C(c2ccccc2)Nc2ncnn2C1c1ccc(O)cc1 (stereo unspecified)	5.9	1.9	i	1.5	-10.3%	0.694	-3.0
O=C(c1ccco1)N1CCN(S(=O)(=O)c2cccc(C(F)(F)F)c2)CC1	4.6	3.6	x	x	19.7%	0.669	-0.3
Cc1ccc2nc(SCC(=O)NCC3CCCO3)c(C#N)cc2c1 (stereo unspecified)	2.7	-3.3	x	x	-128.4%	0.682	-4.0
Cc1ccc(/C=C/C(=O)N2CCC(Cc3ccccc3)CC2)cc1	2.4	2.2	x	x	x	0.641	0.3
CC1CN(C)C(C)CC1NCc1ccc2c(c1)OCO2 (stereo unspecified)	2.9	3.0	x	x	7.0%	0.726	-0.8
C[C@@H]1CN([C@H](C)CO)C(=O)CCCn2nncc2CO[C@@H]1CN(C)S(=O)(=O)c1ccc2c(c1)OCCCO2	x	x	i	-8.1&1.3	x	x	-0.3
CC1CCN(S(=O)(=O)c2ccc(S(=O)(=O)NCc3cccnc3)cc2)CC1	3.2	4.9	i	-2.1	x	0.717	-0.1
Cc1cc(C)cc(C(=O)Nc2ccc(NC(=O)c3cccs3)cc2)c1	-2.5	-5.3	i	0.4	-2.1%	0.707	-0.3
Cc1ccccc1N1C(=O)CC(N2CCN(C(=O)c3ccco3)CC2)C1=O (stereo unspecified)	2.1	-3.0	i	2.1	6.9%	0.703	4.8
CC1=NN(C(N)=S)C(=O)C1N=Nc1c(Br)cc(Br)cc1Br (stereo unspecified)	1.9	x	i	1.0	x	x	-1.7
O=[N+]([O-])c1ccn(-c2nc(-c3cccs3)cc(C(F)(F)F)n2)n1	-0.2	0.9	i	-19.3	21.5%	0.695	-1.3
CCOCCCN(C(=O)Cn1nnc(-c2ccc(OC)c(OC)c2)n1)C(CC)C(=O)NC1CCCC1 (stereo unspecified)	-1.0	2.0	i	-1.3	4.1%	0.671	-3.1
O=C1Nc2cc(Cl)c(Cl)cc2N(O)N1c1ccc(Cl)c(Cl)c1	0.4	4.8	i	4.9	u	0.686	-3.1
O=C(COC(=O)Cc1ccc(Cl)cc1Cl)Nc1ccccc1OC(F)F	4.5	1.6	x	x	x	0.606	-2.7
Cc1ccc(C(=O)NC2CCN(S(=O)(=O)c3ccc(C)cc3)CC2)cc1	-1.2	4.2	i	0.6	x	0.713	-0.6
O=C(NCCCN1CCOCC1)c1cc(C(=O)C2CCCCC2)c[nH]1	-3.5	3.4	i	-3.1	9.4%	0.731	-0.6
CCOc1cc(/C=N\NC(=O)c2ccc(NC(=O)C(C)(C)C)cc2)ccc1OC(=O)c1ccc(C)cc1	3.0	x	x	x	0.9%	x	0.6
COc1cccc2cc(C(=O)N3CCc4ccccc4C3)c(=O)oc12	-0.6	1.0	x	x	4.2%	0.757	-3.3
COCC(=O)Nc1ccc(N2CCCC2)c(S(=O)(=O)Nc2ccccc2OC)c1	x	2.9	i	0.6	-4.2%	0.701	-0.8
CCCN1C(=O)CSC1=Nc1ccccc1	4.0	2.9	i	-0.3	x	0.656	-1.4
Cc1ccc(N(CC(=O)NCC(O)c2ccccc2)S(=O)(=O)c2ccc(C)cc2)cc1 (stereo unspecified)	3.6	1.6	i	-1.4	3.0%	0.635	1.8
O=Cc1cnc(N2CCOCC2)nc1	1.0	2.1	x	x	x	0.67	4.1
CCc1nc(N2CCCC2C(=O)O)c2oc3ccccc3c2n1 (stereo unspecified)	-0.2	6.0	x	x	3.3%	0.685	-1.6
CCC(=O)OCc1c(C(F)(F)F)nn(C)c1Oc1cccc(C(F)(F)F)c1	1.1	-1.8	x	x	3.4%	0.731	0.6
N#CCCn1cc(/C=N/O)c(-c2ccc(-c3ccccc3)cc2)n1	2.9	x	x	x	-2.3%	x	-1.8
O=C(NCC(=O)N(CC1CCCO1)C1(C(=O)NC2CCCC2)CCCCC1)c1ccccc1 (stereo unspecified)	-1.4	5.3	x	x	-2.4%	0.689	0.4
COc1ccc(-n2c(=O)c3ccccc3n(CC(=O)OCc3ccccc3)c2=O)cc1OC	0.6	5.3	i	-9.5	-1.1%	0.698	1.5
Nc1c(-c2cccs2)cnn1-c1nc(-c2ccc(Cl)cc2Cl)cs1	-2.5	2.3	x	x	14.2%	0.724	-0.5
CCC(C)NC(=O)CSC1=Nc2ccccc2C2=NC(c3ccccc3)C(=O)N12 (stereo unspecified)	-1.9	-139.9	x	x	20.7%	0.693	2.4
Cc1ccc(Cn2cccc(NC(=O)NC3CCCCC3)c2=O)cc1	-0.8	-10.2	x	x	0.5%	0.712	-3.4
CCOCCCNC(=O)N1CCOCC1	-1.0	3.6	x	x	-3.2%	0.73	-2.9
CC(C)NC(=O)CN1CCN(Cc2nc(C(c3ccccc3)c3ccccc3)no2)CC1	-0.7	1.0	i	-3.5	x	0.703	3.0
O=C(CC1Oc2ccccc2NC1=O)NCCCN1CCCC1=O (stereo unspecified)	-3.5	3.7	i	-4.6	0.6%	0.758	0.6
O=[N+]([O-])c1ccc2c(c1)c(-c1ccccc1)nc1nncn12	-0.3	5.0	i	-2.6	1.7%	0.702	1.0
N#Cc1ccccc1OCC(=O)Nc1ccc2c(c1)OCCCO2	u	0.5	i	-6.9	x	0.62	-2.6
N#Cc1ccc(C(=O)N2CCCCC2c2cc(C(=O)Nc3cccc(C#N)c3)no2)cc1 (stereo unspecified)	x	x	i	2.5	x	x	-5.7
CS(=O)(=O)Oc1ccc2c(c1)O/C(=C\C=C\c1ccccc1)C2=O	-13.1	x	i	5.7	u	x	3.3
CCc1cccc(NS(=O)(=O)c2c(C)[nH]c(=O)[nH]c2=O)c1	2.0	3.6	i	-2.8	-9.2%	0.702	2.0
COc1ccc(Cl)cc1C(=O)Nc1cccnc1	4.9	-0.4	i	4.1	x	0.678	-3.3

Additional compounds follow:
SMILES	RanGTP-Impb inh	UCH37 DUB inh	FGF22 binding	MLL AF4-AF9 inh	Vif A3G	E coli growth	HNF4A DNA FP
NC(=O)c1ccc(-n2c(CCC(=O)O)ccc2-c2cccs2)cc1	-6.6	1.2	i	0.2	u	0.723	-7.2
Nc1nc(N2CCN(c3ccc(Cl)cc3)CC2)n[nH]1	-3.4	4.4	i	2.7	-4.1%	0.662	-3.4
CN1CCC[C@@H]1CCNC(=O)c1cccc2c1C(=O)c1ccc(N3CCCC3)cc1S2(=O)=O	x	52.2*	i	-0.8	x	x	63.0*
O=C(Nc1cccc(-c2ccc(N3CCOCC3)nn2)c1)c1ccc([N+](=O)[O-])cc1	3.6	3.6	i	-1.9	-2.6%	0.65	-0.6
CS(=O)(=O)N(CC(=O)N1CCCC1)c1ccc(F)cc1	x	x	i	-2.9	-5.9%	x	-4.1
C#CCOCCOCCOCCNc1nc(N2CCN(C(=O)[C@H]([C@@H](C)CC)n3cc([C@@H](N)CC(C)C)nn3)CC2)nc(N2CCN(C(=O)[C@H](CCCCN)n3cc([C@@H](N)C(C)CC)nn3)CC2)n1 (stereo partly specified)	1.7	0.0	x	x	-5.3%	x	2.8
CC(=O)c1cnc2c(-c3cccc(Br)c3)cnn2c1C	-0.7	-11.0	x	x	x	0.743	-2.8
O=C(Nc1ccccc1Oc1ccccc1)c1ccccc1F	5.8	4.2	x	x	14.1%	0.665	-3.0
COc1ccc(-c2nnc(SCC(=O)NNC(=O)Cc3ccccc3)n2C)cc1OC	8.9	4.5	i	-0.7	23.2%	0.713	-3.2
Cc1cccc(C(=O)N/N=C2/SCC(=O)N2Cc2ccccc2)c1	-2.0	x	i	-3.1	-5.5%	x	2.4
COC(=O)c1ccc(N/C(C)=C/C(=O)c2ccc(C)o2)cc1	-4.9	-5.7	i	5.2	2.0%	0.664	3.0
Cc1[nH]c(=S)[nH]c(=O)c1Cc1ccc(OCC(C)C)cc1	2.5	4.0	i	-2.7	-17.2%	0.695	5.0
NC(=Nc1ccc(N)cc1)C(N)=Nc1ccc(N)cc1	0.1	x	i	2.6	u	x	0.6
CCc1noc(C)c1C(=O)N1CCC(CCC(=O)Nc2cccc(OC)c2)CC1	9.5	5.7	i	-1.2	x	0.729	0.1
Cc1cc(C)nc(N2CCC(C(=O)NCc3ccccc3F)CC2)n1	-1.8	0.3	i	-9.6	-1.9%	0.682	0.6

Entries of single compounds, looked up by structure. Screens in order: RanGTP-Impb inh | UCH37 DUB inh | FGF22 binding | MLL AF4-AF9 inh | Vif A3G | E coli growth | HNF4A DNA FP
Shown for Cc1[nH]c(=S)[nH]c(=O)c1Cc1ccc(OCC(C)C)cc1 : 2.5 | 4.0 | i | -2.7 | -17.2% | 0.695 | 5.0
Shown for CCOc1ccc(S(=O)(=O)N2CCC(C(=O)N3CCN(C)CC3)CC2)cc1Cl : 0.9 | 3.4 | i | 2.1 | 2.6% | 0.66 | -2.9
